# Screens (PubChem BioAssay)
# rRNA inh HTS: inhibits bacterial ribosomal RNA function over humanized ribosomes. GFP signal change (wild-type ribosome), % (test concentration not listed). 350,000 tested, 1.6% active. E. coli WT GFP vs humanized-ribosome RFP mutants, fluorescence, 24 h; stronger effect = lower value; DMSO median 0, no signal -100. AID 720706;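 active = significant combined selectivity score with lowered wild-type GFP, culture density cut under 30%, mutant RFP and density less affected; inactive = any of these conditions unmet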; note: one replicate is shown; some compounds called inactive have numbers as strong as hits
# FGF22 binding: binders of recombinant human FGF22 by thermal shift; 340,000 tested, 1.5% active; SYPRO orange fluorescence; percent of sucrose octasulfate shift, DMSO zero; Q9HCT0; calls only at 9.99 µM;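 active = melting point raised past a set limit in the mean and every replicate; three in four hits are not shown here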
# Target sequence (Q9HCT0 whole entry, looked up): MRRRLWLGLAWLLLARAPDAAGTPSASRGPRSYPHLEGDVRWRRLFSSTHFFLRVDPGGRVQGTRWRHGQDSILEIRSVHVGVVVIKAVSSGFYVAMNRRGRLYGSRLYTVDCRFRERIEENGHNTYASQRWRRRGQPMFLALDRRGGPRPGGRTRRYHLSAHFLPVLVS
# rRNA inh HTS OD600: recorded beside rRNA inh HTS, whose call it bears; OD600 change, %; measured here: OD600 growth;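 optical density of the mix in the first replicate; 0 = DMSO median and -100 = no signal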
# rRNA inh HTS RFP: recorded beside rRNA inh HTS, whose call it bears; RFP signal change, %; measured here: RFP humanized mutant strains;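 first replicate; 0 = DMSO median and -100 = no signal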
# Numbers without * were called inactive; i = inactive; & = joins results of further samples. An excerpt; rates above refer to the full screens.
SMILES,rRNA inh HTS,rRNA inh HTS OD600,rRNA inh HTS RFP,FGF22 binding
C[C@@H]1CN([C@H](C)CO)C(=O)c2cc(/C=C/c3ccccc3)cnc2O[C@@H]1CN(C)C(=O)c1ccc(F)cc1,-2,0,2.9,i
C[C@@H]1CN([C@H](C)CO)C(=O)CCCn2nncc2CO[C@@H]1CN(C)Cc1cccc(C(F)(F)F)c1,-6,-9,1.1,i
C[C@H]1CCCCO[C@H](CN(C)C(=O)CCC(F)(F)F)[C@@H](C)CN([C@@H](C)CO)C(=O)c2cc(NC(=O)CCCN(C)C)ccc2O1,2,5,-0.3,i
C[C@H]1CN([C@@H](C)CO)C(=O)c2cccc(NS(=O)(=O)c3ccc(F)cc3)c2O[C@H]1CN(C)S(C)(=O)=O,-1,8,1.7,i
C[C@H](CO)N1C[C@H](C)[C@H](CN(C)Cc2ccc(C(=O)O)cc2)Oc2c(NS(=O)(=O)c3ccc(Cl)cc3)cccc2C1=O,1,12,0.6,i
CCCNC(=O)[C@@H]1[C@@H](CO)[C@@H]2Cn3c(ccc(-c4ccccc4F)c3=O)[C@H]1N2C(=O)CC,5,9,-0.5,i
CCCNC(=O)C[C@@H]1CC[C@@H]2[C@H](COc3ccc(NC(=O)c4cccc(C(F)(F)F)c4)cc3C(=O)N2C)O1,-5,-13,2.6,i
N[C@@H]1CC[C@H](CCn2cc(-c3ccccn3)nn2)O[C@H]1CO,3,6,0.1,i
C[C@H](CO)N1C[C@H](C)[C@@H](CN(C)C)OCc2ccccc2-c2c(n(C)c3ccccc23)C1=O,2,2,-1.7,i
C/C=C/c1ccc2c(c1)O[C@H](CN(C)C(=O)C1CCOCC1)[C@@H](C)CN([C@@H](C)CO)S2(=O)=O,-2,-3,0.2,i
COCCNC(=O)C[C@@H]1C[C@@H]2c3cc(NC(=O)Nc4ccccc4F)ccc3O[C@@H]2[C@@H](CO)O1,1,-1,-2.2,i
CC(C)OC(=O)N(C)C[C@@H]1OCc2ccccc2-c2ccccc2C(=O)N([C@@H](C)CO)C[C@H]1C,2,-3,-3.3,i
Cc1noc(C)c1NC(=O)N(C)C[C@H]1Oc2c(NS(C)(=O)=O)cccc2C(=O)N([C@H](C)CO)C[C@H]1C,3,5,-3.3,i
CC(C)NC(=O)N(C)C[C@@H]1Oc2c(NC(=O)c3cnccn3)cccc2C(=O)N([C@@H](C)CO)C[C@H]1C,8,5,0.3,i
CCCNC(=O)N1CC2(CN(C(=O)C3CCCCC3)C2)c2c([nH]c3cc(OC)ccc23)[C@H]1CO,-1,6,4.0,i
COCCNC(=O)[C@H]1[C@H](CO)[C@H]2Cn3c(ccc(-c4ccc(F)cc4)c3=O)[C@@H]1N2C,2,6,-0.9,i
COc1ccc(C[C@@H]2CCn3cc(nn3)COC[C@@H](c3ccccc3)NC2=O)cc1,0,10,-2.4,i
O=C(C[C@@H]1CC[C@H](NS(=O)(=O)c2ccccc2)[C@@H](CO)O1)N1CCc2ccccc2C1,1,12,0.2,i
O=C(N[C@@H]1CC[C@@H](CCNC(=O)C2CCCC2)O[C@H]1CO)c1ccccn1,2,3,-1.2,i
CCCNC(=O)C[C@@H]1CC[C@@H]2[C@@H](COc3ccc(NC(=O)Nc4cccc(C)c4)cc3C(=O)N2C)O1,-3,-9,1.8,i
CCCC(=O)Nc1ccc2c(c1)C(=O)N(C)[C@H]1CC[C@H](CC(=O)NCCc3ccccc3)O[C@@H]1CO2,0,4,-1.9,i
Cc1ccc(S(=O)(=O)Nc2ccc3c(c2)C(=O)N([C@@H](C)CO)C[C@@H](C)[C@@H](CN(C)C(=O)c2ccncc2)OCCCC[C@@H](C)O3)cc1,-3,0,-1.3,i
NCC[C@@H]1CC[C@H](NC(=O)c2ccccc2F)[C@@H](CO)O1,4&1,4&0,-2.7&-1.5,i
CCC(=O)Nc1ccc2c(c1)C(=O)N(C)C[C@@H](OC)[C@H](C)CN(C(=O)c1cnccn1)[C@@H](C)CO2,4,7,-4.4,i
COc1ccc(CN(C)C[C@H]2OCCCC[C@H](C)Oc3ccc(NC(=O)NC(C)C)cc3C(=O)N([C@H](C)CO)C[C@@H]2C)cc1,-2,3,-1.2,i

# Part of the list above in order of number of heavy atoms, smallest number first:
SMILES,rRNA inh HTS,rRNA inh HTS OD600,rRNA inh HTS RFP,FGF22 binding
O=C(C[C@@H]1CC[C@H](NS(=O)(=O)c2ccccc2)[C@@H](CO)O1)N1CCc2ccccc2C1,1,12,0.2,i
C[C@H](CO)N1C[C@H](C)[C@@H](CN(C)C)OCc2ccccc2-c2c(n(C)c3ccccc23)C1=O,2,2,-1.7,i
C[C@@H]1CN([C@H](C)CO)C(=O)c2cc(/C=C/c3ccccc3)cnc2O[C@@H]1CN(C)C(=O)c1ccc(F)cc1,-2,0,2.9,i

# Compounds listed so far that contain a CF3 group, in the order listed:
SMILES,rRNA inh HTS,rRNA inh HTS OD600,rRNA inh HTS RFP,FGF22 binding
C[C@@H]1CN([C@H](C)CO)C(=O)CCCn2nncc2CO[C@@H]1CN(C)Cc1cccc(C(F)(F)F)c1,-6,-9,1.1,i
C[C@H]1CCCCO[C@H](CN(C)C(=O)CCC(F)(F)F)[C@@H](C)CN([C@@H](C)CO)C(=O)c2cc(NC(=O)CCCN(C)C)ccc2O1,2,5,-0.3,i
CCCNC(=O)C[C@@H]1CC[C@@H]2[C@H](COc3ccc(NC(=O)c4cccc(C(F)(F)F)c4)cc3C(=O)N2C)O1,-5,-13,2.6,i

# The listing picks up with the 3 entries that preceded the break.
SMILES,rRNA inh HTS,rRNA inh HTS OD600,rRNA inh HTS RFP,FGF22 binding
NCC[C@@H]1CC[C@H](NC(=O)c2ccccc2F)[C@@H](CO)O1,4&1,4&0,-2.7&-1.5,i
CCC(=O)Nc1ccc2c(c1)C(=O)N(C)C[C@@H](OC)[C@H](C)CN(C(=O)c1cnccn1)[C@@H](C)CO2,4,7,-4.4,i
COc1ccc(CN(C)C[C@H]2OCCCC[C@H](C)Oc3ccc(NC(=O)NC(C)C)cc3C(=O)N([C@H](C)CO)C[C@@H]2C)cc1,-2,3,-1.2,i
C[C@@H]1CN([C@H](C)CO)C(=O)c2cc(C#CC3(O)CCCC3)cnc2O[C@@H]1CN(C)S(C)(=O)=O,-2,7,-0.4,i
Cc1noc(C)c1NC(=O)N(C)C[C@H]1Oc2ccc(NC(=O)Cn3cnnn3)cc2CC(=O)N([C@H](C)CO)C[C@H]1C,2,7,-2.0,i
C[C@H]1CN([C@@H](C)CO)C(=O)Cc2cc(NC(=O)CCN3CCOCC3)ccc2O[C@H]1CN(C)CC1CCCCC1,6,-1,-1.2,i
CCCCOCCCNC(=O)C[C@H]1C[C@@]2(C(=O)OC)C(=C[C@H](C3CCCC3)O[C@@H]2C)N(Cc2ccccc2)C1=O,3,-10,6.8,i
COc1cccc(S(=O)(=O)Nc2ccc3c(c2)[C@H]2C[C@@H](CC(=O)N(C)C)O[C@H](CO)[C@H]2O3)c1,0,7,-3.0,i
C[C@H]1CN([C@@H](C)CO)C(=O)Cc2cc(NC(=O)C3CC3)ccc2O[C@@H]1CN(C)S(=O)(=O)c1cccs1,3,-7,-0.8,i
O=C(CC(F)(F)F)N1C[C@H]2[C@@H](c3ccccc31)[C@@H](CO)N2Cc1cccnc1,2,4,2.2,i
CCCNC(=O)N1[C@H](CO)[C@@H](c2ccccc2)[C@@H]1CNC(=O)c1cccc(F)c1,-11,-9,2.3,i
CC(C)C#Cc1ccc2c(c1)O[C@@H](CN(C)Cc1cncnc1)[C@@H](C)CN([C@H](C)CO)S2(=O)=O,-6,-18,-2.2,i
CCS(=O)(=O)NCC[C@@H]1CC[C@H](NS(=O)(=O)c2ccccc2C)[C@H](CO)O1,-2,-6,-0.5,i
O=C(C[C@H]1CC[C@H](NC(=O)c2cccnc2)[C@H](CO)O1)NCc1ccc(Cl)c(Cl)c1,-4,-3,-0.8,i
O=C(C[C@@H]1C[C@H]2c3cc(NC(=O)c4ccc5c(c4)OCO5)ccc3O[C@H]2[C@H](CO)O1)NCc1cccnc1,-1,-4,-2.2,i
O=C(C[C@@H]1CC[C@H](NC(=O)c2ccccc2)[C@@H](CO)O1)NCc1ccc(Oc2ccccc2)cc1,-5,3,-0.1,i
Cc1ccc(S(=O)(=O)N(C)C[C@@H]2Oc3c(NC(=O)c4cnccn4)cccc3C(=O)N([C@@H](C)CO)C[C@H]2C)cc1,-2,-2,-1.6,i
C[C@@H]1CN([C@H](C)CO)C(=O)Cc2cc(NC(=O)c3ccncc3)ccc2O[C@@H]1CN(C)CC1CC1,-1,2,0.7,i
C[C@@H]1CCCCO[C@@H](CN(C)C(=O)c2ccccc2)[C@@H](C)CN([C@@H](C)CO)C(=O)c2cc(N(C)C)ccc2O1,4,4,2.2,i
CNC(=O)C[C@@H]1CC[C@H]2[C@@H](COc3ccc(NC(=O)c4ccccc4F)cc3C(=O)N2C)O1,0,4,-0.7,i
C[C@H](CO)N1C[C@H](C)[C@H](CN(C)Cc2ccc(C(=O)O)cc2)OCCCC[C@H](C)Oc2ccc(NC(=O)NC3CCCCC3)cc2C1=O,2,5,-2.4,i
CN(C)C(=O)[C@H]1[C@H](CO)[C@H]2Cn3c(ccc(-c4ccncc4)c3=O)[C@H]2N1Cc1ccccc1,2,6,1.9,i
Cc1ccc(S(=O)(=O)Nc2ccc3c(c2)C(=O)N([C@@H](C)CO)C[C@H](C)[C@H](CN(C)Cc2ccc(C(=O)O)cc2)O3)cc1,-4,15,-3.5,i
C[C@@H]1CN([C@@H](C)CO)S(=O)(=O)c2ccc(Br)cc2O[C@H]1CN(C)S(=O)(=O)c1ccc(F)cc1,-12,-36,7.0,i
CC(C)NC(=O)Nc1cccc2c1O[C@H](CN(C)C)[C@@H](C)CN([C@@H](C)CO)C2=O,3,5,-1.0,i
CNC(=O)C[C@H]1CC[C@H]2[C@H](COc3ccc(NC(=O)c4cccc(F)c4)cc3C(=O)N2C)O1,-2&0,4&-3,0.5&-2.8,i
CC(=O)N(C)C[C@@H]1Oc2cc(-c3ccccc3)ccc2S(=O)(=O)N([C@H](C)CO)C[C@H]1C,-2,-8,-1.5,i
CNC[C@@H]1OCCCC[C@H](C)Oc2ccc(NC(=O)Cc3ccccc3)cc2C(=O)N([C@@H](C)CO)C[C@H]1C,10,10,1.1,i
SMILES,rRNA inh HTS,rRNA inh HTS OD600,rRNA inh HTS RFP,FGF22 binding
Cc1ccc(-c2cnc3c(c2)C(=O)N([C@@H](C)CO)C[C@@H](C)[C@@H](CN(C)CC2CCOCC2)O3)cc1,3,5,-2.1,i
CCCNC(=O)N1C[C@@H](O)COC[C@@H]2O[C@H](CC(=O)N[C@H]3CCN(Cc4ccccc4)C3)CC[C@H]21,0,0,-5.4,i
COc1ccccc1-c1ccc([C@H]2[C@@H](CO)N(C(=O)NC3CCCCC3)[C@H]2C#N)cc1,-38,-63,7.1,i
CCCNC(=O)[C@@H]1[C@@H](CO)[C@@H]2Cn3c(cccc3=O)[C@@H]2N1CC1CCCCC1,-1,-7,-3.6,i
COc1cccc(-c2ccc3c(c2)[C@@H]2[C@@H](CCN2C(=O)CN2CCOCC2)[C@H](CO)N3)c1,-2,12,-1.6,i
CNC[C@@H]1Oc2ccc(NC(=O)Nc3ccc4c(c3)OCO4)cc2CC(=O)N([C@@H](C)CO)C[C@@H]1C,0,4,0.0,i
COc1ccccc1-c1ccc([C@H]2[C@H]3CN(Cc4ccncc4)CCCCN3[C@H]2CO)cc1,-3,6,7.2,i
Cc1ccccc1S(=O)(=O)N(C)C[C@@H]1OCc2ccccc2-c2ccccc2C(=O)N([C@@H](C)CO)C[C@H]1C,-1,-12,5.7,i
C[C@@H]1CN([C@H](C)CO)C(=O)Cc2cc(NC(=O)CCN3CCOCC3)ccc2O[C@@H]1CN(C)Cc1ccc(-c2ccccc2)cc1,1,-2,5.9,i
CCCN(C)C[C@@H]1Oc2cc(C#CC(C)(C)O)ccc2S(=O)(=O)N([C@H](C)CO)C[C@@H]1C,5,20,-0.9,i
C[C@H](CO)N1C[C@H](C)[C@H](CN(C)Cc2ccc(Oc3ccccc3)cc2)OCc2ccccc2-c2ccccc2C1=O,0,-5,-0.4,i
COc1cccc(S(=O)(=O)N[C@@H]2CC[C@@H](CCn3cc(-c4ccccc4)nn3)O[C@@H]2CO)c1,0,-6,1.1,i
C[C@H](CO)N1C[C@H](C)[C@H](CN(C)C(=O)c2ccccc2F)Oc2ncc(C#Cc3ccccc3)cc2C1=O,-3,-10,6.5,i
Cc1noc(C)c1S(=O)(=O)N(C)C[C@H]1Oc2c(NC(=O)C3CCCCC3)cccc2C(=O)N([C@@H](C)CO)C[C@H]1C,-7,-13,1.6,i
C[C@@H]1CN([C@@H](C)CO)C(=O)c2cc(NC(=O)Cc3ccccc3)ccc2O[C@@H](C)CCCCO[C@H]1CN(C)Cc1ccc(C(F)(F)F)cc1,0,-10,2.4,i
CN1c2ccc(Br)cc2[C@H]2[C@H](CCN2C(=O)CN2CCOCC2)[C@@H]1CO,9,8,-1.3,i
Cc1ccc(-c2ccc3c(c2)O[C@@H](CN(C)Cc2ccncc2)[C@H](C)CN([C@@H](C)CO)S3(=O)=O)cc1,-12,-13,1.4,i
C[C@@H]1CN([C@H](C)CO)S(=O)(=O)c2ccc(-c3ccncc3)cc2O[C@@H]1CN(C)Cc1cccnc1,-4,0,-3.9,i
C[C@@H]1CN([C@H](C)CO)S(=O)(=O)c2ccc(C3=CCCC3)cc2O[C@H]1CN(C)C,0,1,-2.3,i
C[C@H]1CCCCO[C@H](CN(C)Cc2ccncc2)[C@@H](C)CN([C@@H](C)CO)C(=O)c2cc(NS(C)(=O)=O)ccc2O1,-1,6,-2.1,i
C[C@@H]1CN([C@H](C)CO)C(=O)Cc2cc(NC(=O)Nc3ccc(C(F)(F)F)cc3)ccc2O[C@H]1CN(C)S(=O)(=O)c1cccs1,0,8,-2.0,i
